PV pol inh: poliovirus RNA polymerase inhibition; poliovirus polymerase elongation, fluorescence polarization; stronger effect = lower value; % elongation, % (compound at 16.7 µg/mL); hit rate 0.66% among 150,000; AID 588519; in the data active means % elongation below about 90%; further: some results filed as inactive read as strong as hits
Target sequence (P03300 1749-2209 limits assumed): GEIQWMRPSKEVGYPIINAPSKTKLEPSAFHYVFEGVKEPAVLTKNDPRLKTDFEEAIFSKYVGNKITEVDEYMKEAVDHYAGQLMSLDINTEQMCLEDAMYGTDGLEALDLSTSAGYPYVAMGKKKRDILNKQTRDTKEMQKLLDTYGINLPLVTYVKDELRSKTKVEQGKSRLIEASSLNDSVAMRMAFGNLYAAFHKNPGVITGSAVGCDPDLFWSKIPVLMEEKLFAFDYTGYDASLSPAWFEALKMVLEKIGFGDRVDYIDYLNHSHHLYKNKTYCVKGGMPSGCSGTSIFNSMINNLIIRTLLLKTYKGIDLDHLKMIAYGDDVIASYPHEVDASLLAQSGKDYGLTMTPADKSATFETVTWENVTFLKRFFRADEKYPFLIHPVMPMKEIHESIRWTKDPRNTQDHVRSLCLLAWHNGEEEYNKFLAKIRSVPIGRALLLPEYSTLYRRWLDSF
PV pol inh intensity: also measured in PV pol inh; calls as there; % elongation; measured here: total intensity read-out; formula for this scale not given here;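 total fluorescence in place of polarization; lower means less elongation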
Starred values were filed as active, the others as inactive. The list is partial; count on the stated rates, not on these rows.

SMILES | PV pol inh | PV pol inh intensity
CCOc1ccc(-n2c(SCC(=O)N3CCCC3)nc3c([nH]c4ccccc43)c2=O)cc1 | 107 | 114
Cc1ccc(O)c(NC(=O)c2ccc(Br)c(S(=O)(=O)N3CCCCC3)c2)c1 | 104 | 108
Cc1ccc2c(c1)C(c1ccc(F)cc1)N(C(=O)c1ccc(S(=O)(=O)N3CCCCC3)cc1)CC(=O)N2 (stereo not given) | 101 | 102
COc1ccc(CCNC(=O)c2cc3cccc4c3n2CC(C)S4)c(OC)c1OC (stereo not given) | 101 | 95
Cc1ccc2nc(-c3ccc(NC(=O)c4ccccc4S(C)(=O)=O)cc3)sc2c1 | 103 | 108
COc1ccc(-n2nc(C(=O)NCCc3ccc(Cl)cc3)c3c4ccccc4n(C)c3c2=O)cc1 | 115 | 111
Cc1cccc(-c2noc(C3CC(=O)N(c4ccc5c(c4)OCCO5)C3)n2)c1 (stereo not given) | 111 | 116
Cc1cccc(C(=O)OCc2cc(=O)n3nc(C4CCCCC4)sc3n2)c1 | 110 | 101
Cn1nccc1C(=O)NCc1ccc2c(c1)CCN2C(=O)c1ccc(Cl)cc1 | 108 | 108
Cc1cccc(N2CCN(C(=O)Cn3ncc4c3-c3cc(C)ccc3OC4)CC2C)c1 (stereo not given) | 105 | 109
COc1cccc(-c2cc(C(=O)Nc3ccc(OC)cc3OC)no2)c1 | 104 | 105
CCCCN(C)S(=O)(=O)c1ccc(C(=O)Nc2ccc(-c3nc4ccc(C)cc4s3)cc2)cc1 | 109 | 113
CCn1nc(-c2ccccc2)c(-c2ccccc2)c(C(=O)Nc2ccc(NC(C)=O)cc2)c1=O | 111 | 104
CCOC(=O)c1c(Oc2ccc(OC)cc2)nnc(-c2ccccc2)c1-c1ccccc1 | 109 | 111
Cn1c(=O)oc2cc(S(=O)(=O)N3CCCC(C(=O)NCCc4ccc(Cl)cc4)C3)ccc21 (stereo not given) | 112 | 111
CCOc1ccc(-c2nc(CSCC(=O)NCCc3ccc(OCC)c(OCC)c3)c(C)o2)cc1 | 101 | 106
CCC(=O)N1CCc2cc(Br)cc(S(=O)(=O)N3CCC(C(=O)NC(C)(C)C)CC3)c21 | 108 | 112
Cc1cccc(NC(=O)CSc2nncn2C)c1 | 107 | 106
Cc1cccc(N2CCN(C(=O)C3CCN(S(=O)(=O)c4cn(C)cn4)CC3)CC2)c1C | 96 | 96
CCOc1ccc(C(=O)Nc2ccc(C(=O)OCc3cc(=O)n4ccsc4n3)cc2)cc1 | 108 | 107
COc1ccc(-c2ccc(=O)n(CC(=O)Nc3ccc(Br)cc3F)n2)cc1 | 108 | 115
Cc1ccccc1Cn1c(SCc2ccc(C(=O)NC3CCCCC3)cc2)nc2ccncc21 | 108 | 111
CCc1ccccc1NC(=O)C1CCN(S(=O)(=O)c2ccc3[nH]c(=O)ccc3c2)CC1 | 111 | 95
O=c1c2oc3ccccc3c2n(Cc2ccc(Cl)cc2)c(=O)n1Cc1ccc2c(c1)OCO2 | 104 | 107
Cc1ccc(Cl)cc1N1CCN(C(=O)c2cnn(C(C)(C)C)c2C2CCN(C(=O)OC(C)(C)C)CC2)CC1 | 112 | 114
O=C(CSc1nccn1Cc1ccc(F)cc1)Nc1ccc2c(c1)OCCO2 | 101 | 104
O=C(NC1CC(=O)N(c2ccc(F)cc2)C1)c1ccco1 (stereo not given) | 105 | 101
CCOC(=O)c1noc2ncnc(NCc3ccccc3OC)c12 | 106 | 107
CCOC(=O)CSc1nc2sc3c(c2c(=O)n1Cc1ccccc1)CCC(C(C)(C)C)C3 (stereo not given) | 108 | 109
O=C(NCCCN1CCCCC1)c1cc(Sc2ccc(Cl)cc2)nc2ccccc12 | 102 | 107
Cc1ccccc1Nc1cc(C(=O)NC2CCC(C)CC2)c2ccccc2n1 (stereo not given) | 108 | 106
Cc1ccc(S(=O)(=O)c2nnn3c2nc(N2CCCC2)c2sccc23)cc1C | 105 | 106
O=C(CC1N=C2c3ccccc3N=C(SCc3cccc(Cl)c3)N2C1=O)NC1CCCCC1 (stereo not given) | 111 | 120
COc1cccc(CNC(=O)CCn2cccn2)c1 | 108 | 110
Cc1nc2nc(SCC(=O)NC3CCC(C)CC3)nn2c(C)c1Cc1ccccc1Cl (stereo not given) | 107 | 111
O=C(CSc1nc2c([nH]c3ccccc32)c(=O)n1-c1ccc(F)cc1)Nc1ccc2c(c1)OCO2 | 103 | 104
CCc1ccc(NC(=O)CCn2nc(-c3ccccc3OC)c3c(C)cc(C)nc32)cc1 | 110 | 109
Cc1ccc2nc(-c3cccs3)c(Nc3ccc4c(c3)OCCO4)n2c1 | 115 | 108
CC(C)Oc1ccc(CNC(=O)C2CCCN(S(=O)(=O)c3ccc4c(ccn4C)c3)C2)cc1 (stereo not given) | 109 | 97
COC(=O)c1cc2sc(Cl)cc2n1Cc1c(C)cc(C)cc1C | 110 | 112
C=Cc1ccc(COc2ccc3oc(-c4ccccc4)c(C(=O)OCC)c3c2)cc1 | 107 | 111
Cc1ccccc1OCC(=O)OCc1cc(=O)n2nc(C3CCCCC3)sc2n1 | 110 | 106
CCSc1ccccc1C(=O)N1CCN(c2nc3ccccc3s2)CC1 | 96 | 97
NS(=O)(=O)c1ccc(NC(=O)CCn2c(=O)oc3ccccc32)cc1 | 107 | 109
O=C(Cn1ncn2c(cc3ccccc32)c1=O)NCc1ccc(F)cc1 | 109 | 116
O=C(Oc1ccc(Cl)cc1)c1cc(-c2ccc3c(c2)OCCO3)on1 | 107 | 104
CCc1ccc(NC(=O)N(Cc2cn(CC)c3ccccc23)C2CCCCC2)cc1 | 106 | 106
COc1ccc(CNC(=O)c2ccc(NC(=O)N3CC4CCCN4c4ccccc43)cc2)cc1 (stereo not given) | 107 | 106
O=C(Nc1cc(Cl)cc(Cl)c1)c1ccc(F)c(S(=O)(=O)N2CCN(c3ccccc3F)CC2)c1 | 106 | 113
COc1ccc(-c2c3c(nc4sc(C(=O)Nc5ccc(F)cc5)c(N)c24)CC(C)(C)CC3=O)cc1 | 108 | 110
CCC1CCCCN1C(=O)Cn1c(=O)n(CCCCCC(=O)NCc2ccccc2)c(=O)c2sccc21 (stereo not given) | 105 | 105
CCC(=O)N1CCc2cc(Br)cc(S(=O)(=O)N3CCCC(C(=O)Nc4cc(C)ccc4OC)C3)c21 (stereo not given) | 103 | 104
O=C(NCc1ccccc1Cl)c1ccc(NC(=O)c2nsc3ccccc23)cc1 | 112 | 111
CC(Nc1ccc(-c2nc(-c3ccccn3)no2)cc1[N+](=O)[O-])c1ccccc1 (stereo not given) | 103 | 112
COc1ccc(NS(=O)(=O)c2nnc(NC(=O)c3ccccc3F)s2)cc1 | 112 | 109
Cc1ccc2occ(CC(=O)Nc3ccc(S(N)(=O)=O)cc3)c2c1 | 116 | 115
Cc1ccc2c(c1)-c1onc(C(=O)N(C)c3cccc(C(F)(F)F)c3)c1CO2 | 104 | 84
CCN1C(=O)c2ccccc2S(=O)c2ccc(C(=O)NCc3ccc(Cl)cc3)cc21 (stereo not given) | 104 | 104
Cc1ccc(-c2nc(C(=O)NCc3ccccc3Cl)c3n2CCCCC3)cc1 | 109 | 113
O=C(NCCCc1ccccc1)c1ccc2c(c1)sc1nc(-c3ccc(F)cc3)cn12 | 102 | 106

Part of the list above in order of length of the SMILES, descending.
SMILES | PV pol inh | PV pol inh intensity
O=C(Nc1cc(Cl)cc(Cl)c1)c1ccc(F)c(S(=O)(=O)N2CCN(c3ccccc3F)CC2)c1 | 106 | 113
CCc1ccc(NC(=O)N(Cc2cn(CC)c3ccccc23)C2CCCCC2)cc1 | 106 | 106
Cc1ccc2occ(CC(=O)Nc3ccc(S(N)(=O)=O)cc3)c2c1 | 116 | 115

(cont.)
SMILES | PV pol inh | PV pol inh intensity
Fc1ccc(-c2noc3ncnc(NCCc4ccc(Cl)cc4)c23)cc1 | 109 | 111
CCOc1ccc(NC(=O)c2ccc3c(c2)CCN3S(=O)(=O)CC)cc1 | 104 | 115
COc1ccccc1CNc1ncnc2c1nnn2C | 103 | 86
Cc1noc(Cn2c(=O)c3ccccc3n(CC(=O)Nc3cccc(Cl)c3C)c2=O)n1 | 107 | 107
Cc1ccc(-n2c(COCC(=O)O)nc3cccnc32)cc1 | 103 | 107
Fc1ccc(Nc2c(-c3ccco3)nc3ccccn23)cc1 | 106 | 108
COC(=O)c1ccc(NC(=O)C(=O)NCCc2csc3nc(-c4ccccc4F)nn23)cc1 | 110 | 100
Cc1ccc2oc(-c3cc(NC(=O)c4cccs4)cc(C)c3O)nc2c1 | 107 | 101
COc1ccc(NC(=O)Cn2c(=O)oc3cc(S(=O)(=O)N4CCCCC4C)ccc32)cc1 (stereo not given) | 103 | 102
CCn1c(=O)c2cc(C(=O)NCCc3ccc(OC)c(OC)c3)sc2c2ccccc21 | 106 | 111
CCCOc1ccc(C(=O)Nc2ccc3oc(-c4ccc5ccccc5c4)nc3c2)cc1 | 106 | 107
Cc1nc(-c2ccccc2)sc1CCNC(=O)c1ccco1 | 102 | 97
Cc1ccc(CCNc2nc3c(S(=O)(=O)c4ccc(C)cc4)nnn3c3ccsc23)cc1 | 102 | 92
Cc1ccc(CNC(=O)C(=O)NCC(c2ccco2)S(=O)(=O)c2ccccc2)cc1 (stereo not given) | 101 | 103
COc1cccc(CN(C(=O)COc2ccc(Cl)c(C)c2)C2CCS(=O)(=O)C2)c1 (stereo not given) | 110 | 107
CCc1ccc(-n2c(=O)c3sc4ccccc4c3n(CC(=O)N(CC)Cc3ccccc3)c2=O)cc1 | 104 | 112
CCOc1ccccc1CNC(=O)C1CCN(Cc2cc3ccccc3n2Cc2ccccc2)CC1 | 110 | 108
Cc1ccc2oc(C(=O)N(Cc3cccc(F)c3)C3CCS(=O)(=O)C3)c(C)c2c1 (stereo not given) | 107 | 111
COc1cccc(C2CC(=O)N3CN(C4CCCCC4)CSC3=C2C#N)c1 (stereo not given) | 77* | 82*
COc1ccc(Cl)cc1NC(=O)c1cc(S(=O)(=O)N2CCC(C)CC2)cn1C | 108 | 111

Arranged by SMILES length (ascending): some entries from above
SMILES | PV pol inh | PV pol inh intensity
COc1ccccc1CNc1ncnc2c1nnn2C | 103 | 86
Cc1nc(-c2ccccc2)sc1CCNC(=O)c1ccco1 | 102 | 97
Fc1ccc(Nc2c(-c3ccco3)nc3ccccn23)cc1 | 106 | 108
Cc1ccc(-n2c(COCC(=O)O)nc3cccnc32)cc1 | 103 | 107
Fc1ccc(-c2noc3ncnc(NCCc4ccc(Cl)cc4)c23)cc1 | 109 | 111
COc1cccc(C2CC(=O)N3CN(C4CCCCC4)CSC3=C2C#N)c1 (stereo not given) | 77* | 82*
CCOc1ccc(NC(=O)c2ccc3c(c2)CCN3S(=O)(=O)CC)cc1 | 104 | 115
COc1ccc(Cl)cc1NC(=O)c1cc(S(=O)(=O)N2CCC(C)CC2)cn1C | 108 | 111
CCOc1ccccc1CNC(=O)C1CCN(Cc2cc3ccccc3n2Cc2ccccc2)CC1 | 110 | 108
Cc1ccc(CNC(=O)C(=O)NCC(c2ccco2)S(=O)(=O)c2ccccc2)cc1 (stereo not given) | 101 | 103
COc1cccc(CN(C(=O)COc2ccc(Cl)c(C)c2)C2CCS(=O)(=O)C2)c1 (stereo not given) | 110 | 107
Cc1ccc2oc(C(=O)N(Cc3cccc(F)c3)C3CCS(=O)(=O)C3)c(C)c2c1 (stereo not given) | 107 | 111
COC(=O)c1ccc(NC(=O)C(=O)NCCc2csc3nc(-c4ccccc4F)nn23)cc1 | 110 | 100
COc1ccc(NC(=O)Cn2c(=O)oc3cc(S(=O)(=O)N4CCCCC4C)ccc32)cc1 (stereo not given) | 103 | 102
CCc1ccc(-n2c(=O)c3sc4ccccc4c3n(CC(=O)N(CC)Cc3ccccc3)c2=O)cc1 | 104 | 112

New compounds follow
SMILES | PV pol inh | PV pol inh intensity
Cc1cc(C)cc(NC(=O)c2cc(S(=O)(=O)N3CCOCC3)cn2C)c1 | 112 | 113
CNC(=O)Cn1cc(S(=O)(=O)Cc2ccccc2F)c2ccccc21 | 107 | 112
Cc1ccc(-c2nc3scc(CCNS(=O)(=O)c4c(C)noc4C)n3n2)cc1 | 103 | 100
CCOC(=O)C1CCCN(C(=O)Cn2ncc3c(C)n(Cc4ccccc4F)c(C)c3c2=O)C1 (stereo not given) | 106 | 104
CCCOc1ccccc1Cn1c(=O)sc2ccccc21 | 106 | 105
COCCNC(=O)c1ccc2nc(Cc3ccccc3)oc2c1 | 103 | 102
O=C(OCC1CCCO1)c1ccc2c(c1)N(Cc1cccc(Cl)c1)C(=O)c1ccccc1S2(=O)=O (stereo not given) | 112 | 111
Cc1cc(C)c(NC(=O)C(C)n2nc(C)c3sc4ccccc4c3c2=O)c(C)c1 (stereo not given) | 107 | 108
Cc1ccc(-n2c3c(c(=O)[nH]c2=O)C(NS(=O)(=O)c2ccc(C)cc2)(C(F)(F)F)C(=O)N3)cc1 (stereo not given) | 104 | 106
CC(=O)Nc1c(C)nn(-c2ccccc2)c1N1CCC(C(=O)Nc2ccccc2F)CC1 | 108 | 116
COCCNC(=O)CSc1nc2cc3c(cc2c(=O)n1CCCC(=O)NCc1ccc(OC)cc1)OCO3 | 104 | 108
COc1cc(OC)c(NS(=O)(=O)c2ccc3oc(=O)c4ncn(C)c4c3c2)cc1Cl | 96 | 94
COc1cccc(CNC(=O)CN2C(=O)N(c3cc(C)ccc3C)S(=O)(=O)c3ccccc32)c1OC | 106 | 107
COc1ccc(C2CC(=O)c3cc(-c4nc(-c5cccc(Cl)c5)cs4)c(=O)[nH]c3C2)cc1 (stereo not given) | 112 | 120
COCCN1CCc2nc(SCC(=O)Nc3ccc(C)c(Cl)c3)[nH]c(=O)c2C1 | 114 | 119
CCOc1cccc2c1Oc1nc(-c3ccccc3)nc(SCC(=O)Nc3ccc(F)cc3)c1C2 | 104 | 104
CCOC(=O)c1c(NC(=O)c2ccccc2OCC)sc2c1CCC(CC)C2 (stereo not given) | 109 | 112

Screening data as filed in PubChem.
